GLA inh pH 4.5: alpha-galactosidase A (human) inhibition, pH 4.5; purified enzyme, 4-MU-alpha-Gal fluorescence, pH 4.5; P06280; AID 1467; 230,000 tested, under 10 active; activity change, negative = inhibition, % at 105 µM; inconclusive = small, poorly fitted or top-dose-only inhibition, or a rising curve; inactive = flat fitted curve, though single readings scatter; no compound was filed as active;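 note: 0% = full activity with enzyme and -100% = basal without enzyme; dose as in the result columns while the protocol names 77 µM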
miR-21 reporter: raises the signal of a miR-21 reporter; HeLa miR-21 FLuc reporter, luciferase, 48 h; Potency, µM (series often up to 38.3 µM), for inactives: top-dose reporter change, positive = more light; 340,000 tested, under 10 active; active = well fitted rising curve with a large enough effect; inconclusive = small, poorly fitted or top-dose-only effect; inactive = no such curve, though single readings can be large or run the other way;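 note: % of control where 0% means no effect; miR-21 action dims this reporter so a rising signal means less miR-21 action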
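HeLa cells endogenously expressing miR-21, stably carrying CMV-driven firefly luciferase with a downstream miR-21 binding site, 2000 cells/well. Titrations up to approximately 40 uM, 48 hours; luciferase luminescence read.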
Rango-impB inh: prevents formation of the Rango-importin beta complex; Potency, µM (titrated, usually from 92.2 µM), for the others: top-dose inhibition of complex formation; Rango CFP/YFP FRET sensor + importin beta, 45 min; 340,000 tested, 0.031% active; active = rising FRET ratio curve, often small or poorly fitted; inconclusive = mostly compound fluorescence or quenching in the first reads; inactive = flat curves in all reads;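 note: potency is the fitted concentration of half-maximal effect; 0% = DMSO wells and 100% = buffer wells lacking importin beta; nearly all actives have a fitted effect of over 15% in size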
Target sequence (Q14974 whole entry, looked up): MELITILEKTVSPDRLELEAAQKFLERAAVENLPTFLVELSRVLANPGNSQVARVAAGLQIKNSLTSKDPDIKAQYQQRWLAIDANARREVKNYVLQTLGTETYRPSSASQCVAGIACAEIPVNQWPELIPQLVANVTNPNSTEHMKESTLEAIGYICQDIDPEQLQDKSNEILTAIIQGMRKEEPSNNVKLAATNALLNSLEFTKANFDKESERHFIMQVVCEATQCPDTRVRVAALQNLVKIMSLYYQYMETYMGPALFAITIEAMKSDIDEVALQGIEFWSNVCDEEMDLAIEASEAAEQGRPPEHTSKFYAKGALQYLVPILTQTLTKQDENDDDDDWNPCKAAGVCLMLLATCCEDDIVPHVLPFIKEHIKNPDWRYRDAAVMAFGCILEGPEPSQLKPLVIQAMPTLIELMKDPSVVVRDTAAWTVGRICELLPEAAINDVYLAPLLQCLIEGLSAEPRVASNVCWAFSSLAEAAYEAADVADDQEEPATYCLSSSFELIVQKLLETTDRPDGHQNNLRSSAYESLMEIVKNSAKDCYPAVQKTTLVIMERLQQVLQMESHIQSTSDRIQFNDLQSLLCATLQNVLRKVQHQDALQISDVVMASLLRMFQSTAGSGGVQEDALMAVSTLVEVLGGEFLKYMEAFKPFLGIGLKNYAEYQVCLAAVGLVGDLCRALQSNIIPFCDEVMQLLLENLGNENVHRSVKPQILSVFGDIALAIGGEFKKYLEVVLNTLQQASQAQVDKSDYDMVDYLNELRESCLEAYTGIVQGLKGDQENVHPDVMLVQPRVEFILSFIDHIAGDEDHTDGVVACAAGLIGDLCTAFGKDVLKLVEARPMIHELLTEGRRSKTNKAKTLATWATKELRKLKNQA
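Inhibition scored from the CFP 486 nm/YFP 530 nm FRET ratio 45 min after adding 0.125 microM importin beta to 50 nM Rango biosensor preincubated 5 min with compound (room temperature, PBS with DTT, Tween-20, BSA). No-importin wells as positive control.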
Rango dissoc inh: inhibitors of RanGTP-induced Rango-importin beta complex dissociation | O95149+P62826 | Biochemical FRET Rango-importin beta, RanGTP-induced dissociation | Potency, µM (series often up to 46.1 µM), for the others: at the top dose activity change, negative = inhibition | 340,000 tested, 0.071% active | AID 540253; active means falling FRET ratio curve, often poorly fitted, with flat reads before Ran was added; inconclusive means other falling curves, or compound fluorescence or quenching; inactive means flat or rising ratio curve;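 note: potency is the fitted concentration of half-maximal effect; % of control where 0% means no effect; nearly all actives have a fitted effect of over 45% in size; -100% = wells without RanGTP and RCC1; the record marks most hits as doubtful in a second field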
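Quantitative HTS using a FRET biosensor: 0.1 uM Rango, 0.25 uM importin beta, 0.6 uM Ran, 2 mM GTP, 0.2 uM RCC1 final, PBS with DTT, Tween-20 and BSA. Post-read taken 45 min after Ran addition.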
Numbers without * were called inactive; ? = inconclusive; / = no result given; & = joins results of further samples. Only part of the results is shown. The share of hits here may be higher or lower than overall.

GLA inh pH 4.5 | miR-21 reporter | Rango-impB inh | Rango dissoc inh | Molecule
0 | -6% | 3.2% | -7% | O=C(Nc1ccccc1C(=O)N1CCOCC1)C1COc2ccccc2O1 (stereo unspecified)
3 | -24% | 1.1% | 10% | Cc1ccc(Nc2nc(N)nc(-c3oc4ccccc4c3C)n2)cc1
11 | -7% | 0.5% | -15% | O=C(O)c1cc2c(cc1Br)OCCCO2
/ | -22% | 4.9% | 2% | CCc1cc(=O)oc2cc(OCc3ccc(C(=O)O)o3)ccc12
5 | -17% | -2.2% | -19% | CCCCC(=O)NC(=S)Nc1cccc(NC(=O)CC)c1
3 | -11% | 0.5% | 4% | COc1cc(CNc2cccc(C(=O)O)c2)cc(Br)c1OCC(=O)NC(C)(C)C
-4 | -1% | 0.1% | 7% | O=C1CC(Cc2ccccc2)C(=O)N1c1ccccn1 (stereo unspecified)
-1 | -1% | -2.1% | -15% | Cc1cc(NC(=O)CCC(=O)N(Cc2ccco2)C(C(=O)NC2CCCCC2)c2ccccc2)no1 (stereo unspecified)
0 | -11% | -3.2% | 0% | O=C(Nc1ccccc1Cl)c1ccc(S(=O)(=O)N2CCOCC2)cc1
/ | -27% | 0.5% | -4% | Cc1cccc(NC(=O)c2c(O)c3ccccc3[nH]c2=O)c1
0 | -20% | 0.8% | -8% | COC(=O)C(C(=O)OC)C(C(=O)OC)C(C(=O)OC)C(=O)OC
2 | 18% | -2.4% | 10% | O=C(/C=C\c1ccco1)Nc1cc([N+](=O)[O-])ccc1F
/ | / | -0.2% | 0% | COCCN(C(=O)COC(=O)CSc1ccc(Cl)cc1)c1c(N)n(CC(C)C)c(=O)[nH]c1=O
0 | 1% | 3.2% | 9% | Cc1ccc(C(=O)N2CCCC(c3ccc(Cl)cc3)=N2)cc1
/ | 4% | 0.6% | 23% | Cc1ccc(CN2CCN(C(=O)CCC(=O)Nc3nnc(C(C)C)s3)CC2)c(C)c1
/ | -3% | 0.4% | -7% | Cc1ccccc1CCNC(=O)C1CCC(=O)N(Cc2ccc(Cl)cc2)C1 (stereo unspecified)
/ | 1% | 6.0% | 10% | CCc1nc(SCC(=O)Nc2cc(C)ccc2OC)c2c(C)c(C)sc2n1
/ | / | -0.3% | -13% | CNc1ccccc1C(=O)OCC(=O)N(CCOC)c1c(N)n(CC(C)C)c(=O)[nH]c1=O
3 | 0% | 2.2% | 0% | O=C(Cc1ccccc1)Nc1nnc(SCC(=O)NC2CCCC2)s1
/ | / | ? | -5% | O=C(CSc1nnc(COc2ccc(Cl)cc2)n1Cc1ccco1)N1CCNC1=O
/ | 0% | -0.5% | 0% | O=C(O)c1cccc(NS(=O)(=O)c2cccc(C(=O)Nc3ccccc3[N+](=O)[O-])c2)c1
/ | / | -0.4% | 18% | CCOc1ccc(CCNC(=O)COC(=O)C2CCN(c3ccc(C(F)(F)F)cn3)CC2)cc1OCC
/ | / | -4.0% | 9% | NC(=O)c1ncn([C@@H]2O[C@H](CNCc3cnc(N4CCOCC4)s3)[C@@H](O)[C@H]2O)n1
/ | -7% | -2.8% | 0% | COc1ccc(C(=O)NCCCSC)cc1OC1CCN(C(C)C)CC1
-3 | -17% | 1.5% | 17% | Cc1cc(C)nc(Oc2ccc(Br)cc2)n1
-2 | -5% | 2.2% | 16% | Cc1ccc(S(=O)(=O)N(C)C)cc1NC(=O)COC(=O)c1ccc(Cl)cc1
/ | / | 8.2% | ? | CCN(CC)CCN(C(=O)/C=C/c1cccs1)c1nc2ccc(OC)cc2s1
2 | -5% | 2.9% | ? | Cc1ccc(CN2CCNC2=O)cc1
/ | 4%&4% | -0.6% | -4% | COC(=O)C(NC(=O)CCc1c(C)nc2c(c(C)nn2-c2ccccc2)c1C)C(C)C (stereo unspecified)
-2 | -6% | 0.2% | -9% | CCOC(=O)c1cccc(NC(=O)C2CCN(S(=O)(=O)c3cnc[nH]3)CC2)c1
/ | / | 3.1% | -12% | COc1ccc(NC(=O)CN2C(=O)NC3(CCCCC3C)C2=O)cc1OC (stereo unspecified)
-2 | -2% | 0.1% | 7% | CC1(C)NC(=O)N(CC(O)COc2ccccc2C(=O)N2CCCCC2)C1=O (stereo unspecified)
/ | -1% | -0.6% | 21% | CN1C(C(=O)NCc2cccs2)=CC(c2ccc(F)cc2)=NS1(=O)=O
-2 | -21% | -3.2% | 7% | O=C(Nc1ccc(NC(=O)c2ccccc2O)cc1)Nc1ccc(F)cc1F
/ | / | -3.3% | 1% | Cc1cc(C)c(C(=O)COC(=O)c2cc([N+](=O)[O-])ccc2N2CCOCC2)cc1C
2 | -23% | 0.3% | 1% | CC(=O)Oc1ccc(-c2csc(Nc3cccnc3)n2)cc1
6 | -3% | -0.3% | 7% | CCOC(=O)N1CCC(NC(=O)CC(NS(=O)(=O)c2ccc(C)cc2)c2ccco2)CC1 (stereo unspecified)
0 | -9% | 2.3% | -2% | O=C(O)c1cccc(N2C(=O)C3C4C=CC(C4=C(c4ccccc4)c4ccccc4)C3C2=O)c1 (stereo unspecified)
2 | -2% | 4.3% | ? | COc1ccc(-c2[nH]ncc2C=O)cc1
/ | / | -1.9% | 0% | O=C(CCS(=O)(=O)c1ccccc1)Nc1ccc(N2CCN(Cc3ccccc3)CC2)cc1
/ | 0% | -2.0% | -21% | Cc1ccc2c(c1)N(C(=O)CCC(=O)NCCCN1CCOCC1)CCO2
-9 | -2% | -2.7% | -7% | CC(=O)Nc1cccc(N2CCCC2=O)c1
8 | -49% | 15% | 9% | CC(C)(C)c1cc(NC(=O)c2cccnc2)no1
0 | -24% | -1.8% | 6% | O=C(CSCc1c(Cl)cccc1Cl)Nc1ccc2c(c1)OCO2
0 | 10% | -0.5% | 16% | CCCCCCNC(=O)N1C/C=C\C(c2ccc(OC)cc2)N(Cc2ccc(F)cc2)C(=O)C1 (stereo unspecified)
-14 | -1% | -1.4% | -12% | CCOc1ccc(S(=O)(=O)N2CCN(c3ccccc3)CC2)c2cccnc12
2 | -22% | 0.1% | 8% | CCOC(=O)c1ccc(NC(=O)Nc2cc(C)on2)cc1
-5 | -11% | ? | 4% | COc1cc(/C=C2\SC(=N)N(c3ccc4c(c3)OCO4)C2=O)cc(OC)c1O
-1 | 0% | -0.6% | -7% | CC1(C)CC2(CCO1)OC(=O)CC2C(=O)Nc1ccc(Cl)cc1[N+](=O)[O-] (stereo unspecified)
-19 | 22% | 0.9% | 24% | Cc1ccc(C(C)C)c(OCC(=O)N/N=C/c2cccn2C)c1
/ | 23% | 3.7% | 9% | NC(=S)NN=C1c2ccccc2-c2ccccc21
2 | -38% | ? | ? | CNC(=O)/C(C#N)=C\c1cc(C)n(-c2ccc(N3CCOCC3)cc2)c1C
-3 | 1% | -1.6% | -10% | CCOc1ccc(NC(=O)COC(=O)Cn2cnnn2)cc1OCC
12 | -8% | -1.9% | -1% | Cc1ccc2cc(CCl)c(Cl)nc2c1
-5 | 18% | -0.3% | 16% | O=C(Nc1ccccc1)C1=C[C@@H](c2ccc(C(F)(F)F)cc2)C[C@@H](OCc2ccc(CO)cc2)O1
/ | / | 0.1% | 5% | COc1ccc([N+](=O)[O-])cc1NS(=O)(=O)c1cccc(C(=O)OC2CCOC2=O)c1 (stereo unspecified)
/ | / | 3.2% | -12% | COc1ccc([C@H]2/C=C\CN(C(=O)c3ccccc3)[C@@H](C)C(=O)N2Cc2ccc(F)cc2)cc1
-6 | -33% | 1.2% | 19% | CCn1cc(Br)c(C(=O)Nc2ccc(Cl)c(Cl)c2)n1
-14 | 4% | 1.2% | -11% | O=c1c(Cc2ccc(Cl)cc2Cl)c(O)ccn1Cc1ccc(Cl)cc1
-11 | -2% | -1.3% | 5% | CC(=O)N1CCC(=NNS(=O)(=O)c2cccc([N+](=O)[O-])c2)CC1

Part of the list above, as a markdown table.
| Compound | GLA inh pH 4.5 | miR-21 reporter | Rango-impB inh | Rango dissoc inh |
| --- | --- | --- | --- | --- |
| O=C(/C=C\c1ccco1)Nc1cc([N+](=O)[O-])ccc1F | 2 | 18% | -2.4% | 10% |
| CC1(C)NC(=O)N(CC(O)COc2ccccc2C(=O)N2CCCCC2)C1=O (stereo unspecified) | -2 | -2% | 0.1% | 7% |
| COc1ccc(NC(=O)CN2C(=O)NC3(CCCCC3C)C2=O)cc1OC (stereo unspecified) | / | / | 3.1% | -12% |

Continued.
GLA inh pH 4.5 | miR-21 reporter | Rango-impB inh | Rango dissoc inh | Molecule
0 | -9% | 1.6% | 3% | COc1ccc(/C=C/C(=O)NC(=S)Nc2ccc(S(=O)(=O)Nc3ccc(OC)nn3)cc2)cc1
/ | 0% | -0.2% | 0% | Clc1ccc2ccc3cccnc3c2n1
-8 | -1% | -1.3% | -20% | CCOC(=O)N1CCN(C(=S)Nc2cccc(C)c2)CC1
11 | -1% | 0.6% | -2% | CC(=O)Nc1csc2ccccc12
/ | / | ? | ? | Cc1cccc(C(=O)OCC(=O)c2csc(N3CCCCC3)n2)c1[N+](=O)[O-]
0 | -18% | 1.2% | -11% | O=C(NCc1ccc(Cl)cc1Cl)c1ccccn1
-8 | 8% | 0.5% | 22% | O=C(NCC1CCN(S(=O)(=O)c2ccccc2)CC1)Nc1ccc(F)cc1F
3 | -6% | 1.0% | 0% | CC1(C)CC(=O)CC(C2(O)C(=O)N(Cc3ccccc3)c3ccccc32)O1 (stereo unspecified)
/ | / | 8.5% | 15% | CCCCOc1ccc(C(=O)NCC(=O)N(C)CC(=O)Nc2ccc(N3CCOCC3)cc2)cc1
/ | -5% | -2.1% | -1% | CCOC(=O)c1ccc(NC(=O)Cn2nc(C)c3ccccc3c2=O)cc1
-4 | -6% | 4.3% | -2% | COc1ccc(-c2c(C)n([O-])c(C)c(-c3ccccc3)[n+]2=O)cc1OC
/ | / | 0.2% | 29% | CCOC(=O)c1c(NC(=O)C2CCCN2S(=O)(=O)c2cccc3nsnc23)sc(C)c1C (stereo unspecified)
6 | -1% | 3.2% | -8% | COc1ccccc1NS(=O)(=O)CC12CCC(CC1=O)C2(C)C (stereo unspecified)
-9 | 7% | 1.0% | 2% | O=C(CN1CCN(Cc2ccc(Cl)cc2)C1=O)NCc1cccs1
13 | -1% | -2.6% | 15% | CSc1nnc2n(C)c3c(c(=O)n12)C1(CCCC1)Cc1ccccc1-3
/ | -4% | -3.5% | 9% | CCOC(=O)c1ccc(NC(=S)N2CCN(c3ccccn3)CC2)cc1
-3&-4&2 | -4% | ? | -28% | CN1CCc2cccc3c2[C@@H]1Cc1ccc(O)c(O)c1-3
-7 | 6% | -0.4% | -4% | COc1cc2cc(C(c3nnnn3C3CCCCC3)N(C)C3CCCCC3)c(=O)[nH]c2cc1OC (stereo unspecified)
/ | / | 2.4% | -14% | C=C(C1=CCN(S(=O)(=O)C(C)(C)C)[C@H]1CCO)c1ccccc1
/ | 1% | ? | ? | N=C1/C(=C\c2ccc(Br)o2)C(=O)N=C2SC(CC(=O)N3CCOCC3)=NN12
3 | 4% | -0.7% | 27% | Cc1cc(C)n(-c2ccc(Cl)c(C(=O)OCC(N)=O)n2)n1
-1 | 0% | -1.6% | 22% | NCCCNC(=O)c1ccc(/C=N/O)nc1
-1 | -7% | / | / | Cc1nc2ccccc2c2c1C(=O)NC2=O
-18 | -20% | -7.4% | 0% | CN(C(=O)C1CCOC1)c1nnc(-c2cnccn2)s1 (stereo unspecified)
5 | -21% | -1.2% | 1% | CCOc1ccc(Cc2c(Cl)nc(SC)nc2OC)cc1
/ | / | -2.4% | -2% | Cc1ccc(NC(=O)CCCN2C(=O)NC(C)(C)C2=O)cc1
-16 | -3% | 0.1% | -20% | Cc1ccc(S(=O)(=O)N(CC(O)CN(C)C)c2ccccc2)cc1 (stereo unspecified)
1 | -13% | -1.0% | 4% | Cn1c(SCC(=O)c2ccc3c(c2)Cc2ccccc2-3)nnc1-c1cccc(N)c1
/ | -2%&-14% | 0.0% | -6% | Cc1ccc(NC(=O)CCc2c(C)nn(-c3ccc(N4CCOCC4)nn3)c2C)c(C)c1
7 | -3% | 1.8% | -7% | c1ccc2oc(-c3[nH]ncc3CN3CCC(N4CCSCC4)CC3)cc2c1
3 | 9% | ? | -5% | Cc1csc(NC(=O)CCc2ccc(S(=O)(=O)N3CCOCC3)cc2)n1
-5 | 2% | -1.1% | -5% | COC(=O)c1ccc(-c2noc(CN(Cc3ccccn3)CC3CCCO3)n2)cc1 (stereo unspecified)

Source: PubChem BioAssay (National Center for Advancing Translational Sciences (NCATS))
